# Screens (PubChem)
# Methyltransferases: Primary Screen for Target Class Profiling of Small Molecule Inhibitors of Methyltransferases; purified enzyme, MTase-Glo SAH luminescence; hits give low values; calls only at 40 µM; 3.9% of 25,000 active; AID 1745853, 2022; active = -50% or lower on at least one of six enzymes; inconclusive = the cases between; inactive = as a rule above -30% on all six;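 note: enzymes were COMT GAMT GNMT HNMT NNMT and PNMT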
#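 Each enzyme was assayed with SAM and its substrate. SAH formation detected by MTase-Glo luminescence; single-point 40 uM screen[…].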
# Calls only; i = inactive; ? = inconclusive; + = active, no number. % is set by controls: 0 for no effect and ±100 for the full control effect. Some of the compounds tested; rates above refer to the full screens.
Molecule | Methyltransferases
COc1ccc(CN2C(=O)c3cc4ccccc4n3CC2(C)C(=O)NC2CCCC2)cc1 (stereo unspecified) | i
CCCS(=O)(=O)N1C[C@@H](Oc2ccccc2)C[C@@H]1C(=O)NCCOC | i
CN1Cc2ncnc(N3CCOCC3)c2CN(c2cccnc2)C1=O | i
O=C(C1CC2(CCNCC2)CN1)N1CCC(c2nc3ccccc3[nH]2)CC1 (stereo unspecified) | i
CCOc1ccccc1CN1C(=O)c2cc3sccc3n2CC1(C)C(=O)NC1CCCCC1 (stereo unspecified) | i
COCC(=O)N[C@H]1C[C@H]2C(=O)NC[C@@H](CCC(=O)N3CCN(c4ccccc4)CC3)N2C1 | i
C=CC(=O)Nc1cccc(CN2C(=O)N(c3c(Cl)c(OC)cc(OC)c3Cl)Cc3cnc(NCCCCN(CC)CC)nc32)c1 | +
COCC(=O)N[C@@H]1CN(C2CCOCC2)CC[C@@H]1CO | i
Nc1nc(N)c(N=O)c(OCC2CCCCC2)n1 | i
NC1(Cc2ccc(Cl)cc2)CCN(c2ncnc3[nH]ccc23)CC1 | +
COc1ccc(-c2cc3n(n2)CC(C)(C(=O)NCc2ccccc2OC)N(c2ccc(C)c(Cl)c2)C3=O)cc1 (stereo unspecified) | i
O=C1Nc2ccccc2CC12CCN2Cc1ccc(OC(F)(F)F)cc1 (stereo unspecified) | i
CC[N+]1(C/C2=C/CCCCCC2)CCC(NC(=O)C2c3cc(Cl)ccc3Oc3ccc(Cl)cc32)CC1 (stereo unspecified) | +
Cn1cnc(S(=O)(=O)N2CC(N(C3CCOCC3)S(C)(=O)=O)C2)c1 | i
COc1cccc(OC)c1OCCNCC1COc2ccccc2O1 (stereo unspecified) | i
O=C(NC/C=C/CN1CCN(c2cccc(Cl)c2Cl)CC1)c1ccc(-c2ccccn2)cc1 | ?
CCc1cccc(N2C(=O)c3c(C(=O)OC)ncn3CC2(C)C(=O)NC2CCCC2)c1 (stereo unspecified) | i
CC1(C(=O)NCc2ccc(F)cc2)Cn2cnc(C(=O)NCCc3ccco3)c2C(=O)N1C1CC1 (stereo unspecified) | i
O=C(O[C@H]1[C@@H]2C[C@@H]3OC[C@@](O)([C@H]2[C@H](O[C@@H]2O[C@H](CO)[C@@H](O)[C@H](O)[C@H]2O)O3)[C@@H]1O)c1ccccc1 | i
COc1cccc(Nc2nccc3c(=O)cc(-c4ccccn4)oc23)c1 | ?
Cc1ccc(C)c(N2C(=O)c3cc4sccc4n3CC2(C)C(=O)NC2CCC(C)CC2)c1 (stereo unspecified) | i
CC1(C)CC[C@]2(C(=O)O)CC[C@]3(C)C(=CCC4[C@@]5(C)C[C@@H](O)[C@H](O)C(C)(C)C5CC[C@]43C)C2C1 (stereo partly specified) | ?
CCOc1ccc(C(=O)Cn2nc3n(Cc4ccc(C)cc4)c(=O)c4ccccc4n3c2=O)cc1 | i
Cc1ccc(CN2CCc3nc(C(=O)Nc4cccnc4)oc3CC2)o1 | i
CCCCN1C(=O)c2cc(C(=O)NCCN3CCN(CC)CC3)nn2CC1(C)C(=O)NC1CCCC1 (stereo unspecified) | i
CCCn1c(=O)c2ccc(C(=O)NC(C)CC)cc2n2c(=O)n(Cc3cc(C)ccc3C)nc12 (stereo unspecified) | i
CC(=O)N1CCCC(c2[nH]ccc2C(=O)N2CCN(c3ccccc3)CC2)C1 (stereo unspecified) | i
CCOc1cccc(C2c3cccn3-c3sc4c(c3CN2C(=O)Nc2ccc(C)cc2)CCCC4)c1 (stereo unspecified) | i
CN1CCN(C(=O)c2ccc3cc(CCNc4ncnc5ccc(C#N)cc45)ccc3c2)CC1 | +
Cc1ccc(Cn2c(=O)c3ccccc3n3c(=O)n(Cc4ccccc4F)nc23)cc1 | i

# Another view of part of the listing above:
> CC1(C)CC[C@]2(C(=O)O)CC[C@]3(C)C(=CCC4[C@@]5(C)C[C@@H](O)[C@H](O)C(C)(C)C5CC[C@]43C)C2C1 (stereo partly specified)
  Methyltransferases: ?
> CC1(C(=O)NCc2ccc(F)cc2)Cn2cnc(C(=O)NCCc3ccco3)c2C(=O)N1C1CC1 (stereo unspecified)
  Methyltransferases: i
> NC1(Cc2ccc(Cl)cc2)CCN(c2ncnc3[nH]ccc23)CC1
  Methyltransferases: +

# (listing goes on)
Molecule | Methyltransferases
CCc1cc2c(cc3n2CC(C)(C(=O)NC2CCCCCC2)N(CCN2CCCC2)C3=O)s1 (stereo unspecified) | i
O=c1[nH]c2ccccc2n1C1CCN(S(=O)(=O)c2ccc(F)cc2)CC1 | i
CCCn1c(=O)c2ccccc2n2c(SCC(=O)NCc3ccc(OC)cc3)nnc12 | i
N=c1c[n+](N2CCOCC2)[n-]o1 | i
S=C(S)N1CCCC1 | ?
Cc1ccc(Cn2c(=O)c3ccccc3n3c(CCC(=O)N4CCN(c5ccccc5F)CC4)nnc23)cc1 | i
Fc1ccc(CNc2nc3c(-c4ccc(F)cc4)nnn3c3ccccc23)cc1 | i
CC1CC(C(O)C(C)(C)O)OC2CC3(C)C4(C)CCC5C(C)(C)C(=O)CCC5(C)C4CCC3(O)C12O (stereo unspecified) | i
COc1ccc(-c2cc3n(n2)CC(C)(C(=O)NC2CCCCCC2)N(Cc2ccccc2)C3=O)cc1 (stereo unspecified) | i
COc1ccc(/C=C/C(=O)O[C@@H]2[C@@H](O)[C@@H](O)[C@H](O[C@H]3[C@@H]4C=CO[C@@H](O[C@@H]5O[C@H](CO)[C@@H](O)[C@H](O)[C@H]5O)[C@@H]4[C@@]4(CO)O[C@@H]34)O[C@H]2C)cc1 | i
O=C(Nc1cccc(C(F)(F)F)c1)Nc1ccc(Br)cc1-c1nn[nH]n1 | ?
COc1ccc(OC)c2c1cc1n2CC(C)(C(=O)NC2CCCCC2C)N(Cc2cccs2)C1=O (stereo unspecified) | i
C=CCCC(CN1CCOCC1)Oc1ccc(-c2ccccc2)nn1 (stereo unspecified) | i
COc1cc(OC)cc(OCc2nnc(C(=O)N3CCC[C@@H]3C)n2-c2ccccc2)c1 | i
CCCn1c(=O)c2cc(Cl)ccc2n2c(=O)n(CC(=O)Nc3cccc(F)c3)nc12 | i
COc1cccc(CC(=O)N2CC[C@H](CO)[C@H](NC(=O)C3CC3)C2)c1 | i
Cc1ccc2nc(CN(C)C(=O)C3CCC(=O)N(C4CCCCCC4)C3)[nH]c2c1 (stereo unspecified) | +
CC(C)(C(=O)O)c1cnc(N2CC[C@H](CO)[C@H](O)C2)nc1N1CCOCC1 | i
Cn1c(=O)c2[nH]c(C3CCCC3)nc2n(C)c1=O | i
Cc1cc2[nH]c(=O)[nH]c2cc1S(=O)(=O)N1CCN(c2ccccc2F)CC1 | i
C=CCn1c(=O)c2ccc(C(=O)NC(C)C)cc2n2c(=O)n(CC(=O)NC(C)C)nc12 | i
CC[C@]12CCCN3CCc4c(n(c5ccccc45)C(=O)C1)[C@@H]32 | i
CC(C)=CCC[C@](C)(O[C@@H]1O[C@H](CO[C@@H]2OC[C@H](O)[C@H](O)[C@H]2O)[C@@H](O)[C@H](O)[C@H]1O)[C@H]1CC[C@]2(C)[C@@H]1[C@H](O)C[C@@H]1[C@@]3(C)CC[C@H](O[C@@H]4O[C@H](CO)[C@@H](O)[C@H](O)[C@H]4O[C@@H]4O[C@H](CO)[C@@H](O)[C@H](O)[C@H]4O)C(C)(C)[C@@H]3CC[C@]12C | ?
COc1ccc(CCO[C@@H]2O[C@H](CO[C@@H]3OC[C@H](O)[C@H](O)[C@H]3O)[C@@H](O)[C@H](O)[C@H]2O)cc1 | +
Cc1ccc(Cn2c(=O)c3ccccc3n3c(CCC(=O)N4CCN(c5ccc(F)cc5)CC4)nnc23)cc1 | i
CC(O)CCc1ccc(O[C@@H]2O[C@H](CO)[C@@H](O)[C@H](O)[C@H]2O)cc1 (stereo partly specified) | ?
CC(=O)O[C@H]1CC[C@@]2(CI)C(=CC[C@@H]3[C@@H]2CC[C@]2(C)[C@@H]([C@H](C)CCCC(C)C)CC[C@@H]32)C1 | i
CCc1cc2c(cc3n2CC(C)(C(=O)NC2CCCCC2)N(Cc2cccc(F)c2)C3=O)s1 (stereo unspecified) | i
CCc1noc([C@@H]2CC(F)(F)CN2C(=O)Cc2cccnc2)n1 | i
Cc1sc2ncn(CC(=O)NCc3cccs3)c(=O)c2c1S(=O)(=O)N1CCC(C)CC1 | i
CC(C)c1ccc2c(c1)[C@H](O)CC1[C@@](C)(C(=O)O)CCC[C@]21C (stereo partly specified) | i
CC1(COc2cccnc2)COc2ccc(C(=O)NCc3cccs3)cc2N1 (stereo unspecified) | ?
CC(C)OCCCNC(=O)CCc1nnc2n(Cc3ccccc3)c(=O)c3ccccc3n12 | i
Cc1noc(C)c1S(=O)(=O)N1CCC2(C1)C(=O)N(c1ccccc1)c1ccccc12 (stereo unspecified) | i
CC(Sc1nc2c(cnn2-c2cccc(Cl)c2)c(=O)[nH]1)C(N)=O (stereo unspecified) | ?
CCCN1C(=O)c2c(C(=O)NCc3cc(OC)ccc3OC)ncn2CC1(C)C(=O)NCc1ccc(F)cc1 (stereo unspecified) | i
COC(=O)c1c(C)[nH]c(C)c1C(=O)c1ccccc1Cc1ccccc1 | i
CCC(C)NC(=O)c1ccc2c(=O)n(C(C)C)c3nn(CC(=O)Nc4ccc(C)cc4C)c(=O)n3c2c1 (stereo unspecified) | i
O=C1CN(Cc2ccc(F)cc2Cl)S(=O)(=O)c2ccccc2N1Cc1ccccc1F | i
CC1CCN(Cc2nnnn2CC(=O)N(C)Cc2ccccn2)CC1 | i
COCc1ccc2c(c1)c(OC(C)(C)C(=O)NCC1CCOCC1)nn2Cc1ccccc1 | i
CC1(C(=O)NC2CCCCCC2)Cc2ccccc2C(=O)N1CCc1ccccc1 (stereo unspecified) | i
c1ccc(C2=NOC3(CCCN(CC4CCCC4)C3)C2)cc1 (stereo unspecified) | i
CCC(C)NC(=O)c1ccc2c(=O)n(Cc3ccccc3)c3nn(Cc4ccccc4C)c(=O)n3c2c1 (stereo unspecified) | i
O=C(CCSCc1ccco1)NNC(=O)N1Cc2ccccc2Oc2ccc(Cl)cc21 | i
CCOC(=O)c1c2c3c(cccc3[nH]c1=O)C(=O)c1ccccc1-2 | ?
CC1(C(=O)NC2CCCCCC2)Cn2nc(C3CC3)cc2C(=O)N1Cc1cccc(Br)c1 (stereo unspecified) | i
COc1ccc(NC(=O)/C=C/c2ccc(Cl)cc2)cc1 | +
COc1ccc2cc3n(c2c1)CC(C)(C(=O)NC1CCCCC1)N(C1CCCC(C)C1C)C3=O (stereo unspecified) | i
COc1cccc(CNC(=O)Cn2ccc3cc(S(=O)(=O)N4CCCC4)ccc32)c1OC | i
CCCCCC(=O)N(c1ccc(OC)cc1)S(=O)(=O)c1ccc2c(c1)n(C)c(=O)n2C | i
COc1ccccc1OC1(C(=O)O)CCN(c2ncnc(C)c2C)CC1 | i
Cn1nc(N2CCC(NC(=O)c3ncccn3)CC2)ccc1=O | i
CC[C@H](C)C(=O)O[C@H]1C[C@@H](C)C=C2C=C[C@H](C)[C@H](CC[C@@H]3C[C@@H](O)CC(=O)O3)[C@H]21 | i
CCc1ccc(NC(=O)N2CCn3cccc3C2Cc2ccccc2)cc1 (stereo unspecified) | i
CCCCN1C(=O)c2cc(C(=O)Nc3ccc(F)cc3Cl)nn2CC1(C)C(=O)NC1CCCC1 (stereo unspecified) | i
CCOC(=O)c1cc2n(n1)CC(C)(C(=O)NCc1ccc(F)cc1)N(Cc1ccc(Cl)cc1)C2=O (stereo unspecified) | i
CCCn1c(=O)c2ccc(C(=O)NC(C)C)cc2n2c(SCC(=O)NCc3ccccc3)nnc12 | i
Cc1ccc(C)c2c1NC(c1ccc(Br)cc1)C1CC=CC21 (stereo unspecified) | i
Cc1ccc(-c2n[nH]n3c2nc(=O)c2ccc(C(=O)N4CCN(c5cc(C)ccc5C)CC4)cc23)cc1 | i

# Later entries:
Molecule | Methyltransferases
CC/C=C\CCO[C@@H]1O[C@H](CO)[C@@H](O)[C@H](O)[C@H]1O | +
CCCn1c(=O)c2ccc(Cl)cc2n2c(=O)n(CC(=O)N3CCN(c4ccccc4F)CC3)nc12 | i
CCOc1ccc(CN2C(=O)c3cc(C(=O)OC)nn3CC2(C)C(=O)NC2CCCCCC2)cc1 (stereo unspecified) | i
CN(C)C[C@@H]1CN(C)C[C@H]1NS(=O)(=O)c1ccccc1F | i
CCCn1c(=O)c2ccc(C(=O)NCC(C)C)cc2n2c(=O)n(CC(=O)Nc3cccc(C)c3)nc12 | i
Cc1cccc(OC2(C(=O)O)CCN(c3cncc(C(N)=O)n3)CC2)c1 | i
COC[C@@H]1[C@H](C(=O)N2CCN(c3ccccn3)CC2)CCC(=O)N1C | i
COc1ccc(CN2CCCC(COc3ccccc3C(=O)NC3CC3)C2)c(OC)c1 (stereo unspecified) | +
CC1=C[C@@H](CNC(=O)C(C)(C)C)[C@H](C(C)C)C[C@H]1Cc1nnc(-c2ccncc2)o1 | i
COc1ccccc1N1CCN(CC[C@@H]2CC[C@H](O)[C@@H](C(=O)Nc3ccccc3)O2)CC1 | i
CC1(C(=O)NC2CCCCCC2)Cn2c(cc3ccccc32)C(=O)N1CCN1CCOCC1 (stereo unspecified) | i
COc1ccc(C(=O)Cn2nc3n(CCc4ccccc4)c(=O)c4ccccc4n3c2=O)cc1 | i

# 5 entries picked at random from those above, as already listed:
Molecule | Methyltransferases
CCCn1c(=O)c2ccc(Cl)cc2n2c(=O)n(CC(=O)N3CCN(c4ccccc4F)CC3)nc12 | i
CCCn1c(=O)c2ccc(C(=O)NCC(C)C)cc2n2c(=O)n(CC(=O)Nc3cccc(C)c3)nc12 | i
COC[C@@H]1[C@H](C(=O)N2CCN(c3ccccn3)CC2)CCC(=O)N1C | i
CN(C)C[C@@H]1CN(C)C[C@H]1NS(=O)(=O)c1ccccc1F | i
COc1ccccc1N1CCN(CC[C@@H]2CC[C@H](O)[C@@H](C(=O)Nc3ccccc3)O2)CC1 | i
